Source: PubChem BioAssay
TRPML1 inh – blocks the human TRPML1 channel | TRPML1-inducible cells, Ca2+ dye fluorescence, FDSS; hits give low values; inhibition of EC80 agonist-evoked calcium signal | activity change, negative = inhibition, % (no concentration beside the values) | AID 624415 | Q9GZU1 | 390,000 compounds, 0.02% hits; in the data active means activity change below about -50%; inconclusive means about -30% to -50%; inactive means above about -30%;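 note: stimulus is agonist 54-4 at its EC80 concentration; % is set by controls: 0 for no effect and ±100 for the full control effect; compound concentration not given in the record; the text of the record puts the active cut at -80%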
Target sequence (Q9GZU1 whole entry, looked up): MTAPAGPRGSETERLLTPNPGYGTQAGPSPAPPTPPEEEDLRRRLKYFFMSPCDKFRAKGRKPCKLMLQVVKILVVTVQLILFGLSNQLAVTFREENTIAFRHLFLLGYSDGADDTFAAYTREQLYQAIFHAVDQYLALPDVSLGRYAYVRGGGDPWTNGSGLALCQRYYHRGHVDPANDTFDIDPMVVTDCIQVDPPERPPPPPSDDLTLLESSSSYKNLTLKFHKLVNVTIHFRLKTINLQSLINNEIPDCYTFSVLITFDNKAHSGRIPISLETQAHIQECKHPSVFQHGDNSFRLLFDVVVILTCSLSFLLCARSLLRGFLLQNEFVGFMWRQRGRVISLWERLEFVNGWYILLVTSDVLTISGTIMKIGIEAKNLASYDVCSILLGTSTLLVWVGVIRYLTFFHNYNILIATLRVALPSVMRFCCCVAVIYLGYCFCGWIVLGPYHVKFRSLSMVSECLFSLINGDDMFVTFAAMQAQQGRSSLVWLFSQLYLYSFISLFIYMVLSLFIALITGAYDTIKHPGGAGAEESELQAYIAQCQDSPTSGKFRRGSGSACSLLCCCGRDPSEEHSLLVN
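Tet-induced TRPML1-DL cells loaded with Ca8 no-wash calcium dye were read kinetically on FDSS. Compound addition was followed by EC80 agonist 54-4 (4 uM final); inhibition was read over 110 s.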
ClpP mod – qHTS Assay for Activators of ClpP; ATP-dependent Clp protease proteolytic subunit (Bacillus subtilis (strain 168)), P80244; 340,000 compounds, 1.9% hits; purified B. subtilis ClpP, FRET peptide cleavage, 20 min; AID 651965, 2013; Potency, µM (doses to about 57.5 µM), for inactives: top-dose activity change, negative = active; active = well fitted falling curve with a large enough effect; inconclusive = small, poorly fitted or top-dose-only effect; inactive = no such curve, though single readings can be large or run the other way; note: potency is the fitted concentration of half-maximal effect; the source files actives as falling curves though it sought activators and does not explain the sign; nearly all actives have a fitted effect of over 65% in size; many hits overshoot -100%
Target sequence (P80244 whole entry, looked up): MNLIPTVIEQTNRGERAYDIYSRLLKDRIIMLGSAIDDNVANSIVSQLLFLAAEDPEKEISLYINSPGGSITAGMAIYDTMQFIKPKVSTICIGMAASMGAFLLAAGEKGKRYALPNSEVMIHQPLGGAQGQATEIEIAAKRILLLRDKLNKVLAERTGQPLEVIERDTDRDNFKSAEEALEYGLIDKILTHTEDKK
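FRET quenching reversal measured ClpP activation: 10 microg/mL B. subtilis ClpP at pH 8 with the FRET-FV decapeptide, read at 430 nm after 320 nm excitation. The 20-min minus 0-min signal was scaled between DMSO/no-enzyme wells and ADEP (5.8 microM final).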
gsp antag – antagonists of gsp mutant (McCune-Albright syndrome); gsp-mutant cells, cAMP HTRF, 30 min; control for the full effect not named in the record; 340,000 compounds, 0.4% hits; AID 624288; Potency, µM (doses to about 76.9 µM), for the others: at the top dose activity change, negative = inhibition, actives largely listed as inhibitors; active = falling curve of any shape with a large fitted effect; inconclusive = falling curve, mostly with a smaller effect; inactive = flat or rising curve; cell line not stated here;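 note: intracellular cAMP measured with PDE inhibitor Ro 20-1724 present during compound exposure; potency is the fitted concentration of half-maximal effect; % is set by controls: 0 for no effect and ±100 for the full control effect; nearly all actives have a fitted effect of over 65% in size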
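G418-selected cells were plated in DMEM/10% FBS for 16-24 h at 37C, then treated with compounds plus the PDE inhibitor […] (300 uM solution added) for 30 min at 37C. Intracellular cAMP was measured by HTRF after 30 min lysis at room temperature.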
Sfp PPTase inh – inhibitors of Bacillus subtilis Sfp phosphopantetheinyl transferase; Q9F4F7; Biochemical Sfp PPTase activity, qHTS; 310,000 compounds, 3.5% hits; Potency, µM, without a hit: max response, negative = inhibition, hits mostly inhibitors; active = well fitted inhibition curve with a large enough effect; inconclusive = small, poorly fitted or top-dose-only effect, or another doubt; inactive = no such curve, though single readings can be large or run the other way;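 note: the enzyme is Sfp with the accession as filed and its product quenches rhodamine fluorescence; potency is the fitted concentration of half-maximal effect; 0% = enzyme reaction without inhibitor and -100% = no enzyme wells; top concentration of the series not given in the record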
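With Hepes-Na pH 7.6 buffer containing 10 mM MgCl2, Sfp (15 nM) modified BHQ-2-YbbR (12.5 uM) using rhodamine-CoA (5 uM). Two reads 30 minutes apart at 525/598 nm yielded each well's rate.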
gsp ag – agonists of gsp mutant (McCune-Albright syndrome) | AID 624287 | Potency, µM (top dose mostly 76.9 µM), for inactives: at the top dose activation (cAMP increase), hits mostly activators | 340,000 compounds, 0.13% hits | gsp mutant cells, cAMP HTRF, 30 min; control for the full effect not named in the record; active = well fitted activation curve with a large enough effect; inconclusive = small, poorly fitted or top-dose-only effect, or another doubt; inactive = no such curve, though single readings can be large or run the other way; cell line not stated here;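 note: phosphodiesterase inhibitor Ro 20-1724 added with compounds to block cAMP breakdown; potency is the fitted concentration of half-maximal effect; nearly all actives have a fitted effect of over 60% in size; about a fifth of the inactives were tested at one dose only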
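Cells stably selected in G418 were plated at 2000/well, grown 16-24 hr, then given compounds in DMSO with the PDE inhibitor […] (300 uM solution added) for 30 min at 37C; cAMP was read by HTRF.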
Menin MLL FP FL – displaces fluorescein MLL peptide from human menin; Fluorescence polarization, fluorescein-MLL peptide displacement from menin; FP activity change, % at 61.4 µM; 290,000 tested, under 10 active; AID 1766; inconclusive = falling polarisation curve, or a change in total fluorescence; inactive = total fluorescence flat and polarisation flat or rising; no compound was filed as active; the % refers to the polarisation; negative = inhibition;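 note: % of control where 0% means no effect; inhibitors lower the polarisation; unlabelled MLL peptide was the positive control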
TRPV1 potentiator – potentiators of human vanilloid receptor 1 (TRPV1) | Q8NER1 | TRPV1-expressing cells, Fluo-8 calcium influx, capsaicin EC20 potentiation; host cell line not named in the record; control for the full effect not named in the record | potentiation, % at 8.33 µM | 320,000 compounds, 0.02% hits | AID 540277; active means potentiation above 80%; inconclusive means 30% to 80%; inactive means below 30%; note: 0% is about no effect
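TRPV1-expressing cells were cultured overnight at 35.5C and loaded with Fluo-8 calcium dye for 40 to 90 min at room temperature. After a 10 s baseline, compound was added and calcium influx was read kinetically for 3 min (ex 480/em 520 nm).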
The depositor's hits bear a star; ? = inconclusive; nt = no result given; & = joins results of further samples; [ ] = another dose, or the depositor's remark.

canonical_smiles,TRPML1 inh,ClpP mod,gsp antag,Sfp PPTase inh,gsp ag,Menin MLL FP FL,TRPV1 potentiator
COc1cccc2sc(N(CCN(C)C)C(=O)c3ccc(S(=O)(=O)N4CCCC4)cc3)nc12,-3.7,-4.1%,0.9%,2.9%,-1.5%[15.4 µM],nt,8.6
CC(=O)c1cccc(N(CC(=O)NCC2CCCO2)C(=O)CCC(=O)Nc2cc(C)on2)c1 (centres undefined),41.7,-0.4%,-9.1%,7.1%,1.3%,-1.0,?
CCOc1ccc(OCCNC(=O)c2ccc3c(c2)nnn3CC)cc1,11.3,-2.8%,5.5%,nt,-0.9%,nt,nt
CCC(C)NC(=O)CC(NS(=O)(=O)c1ccc(NC(C)=O)cc1)C(C)C (centres undefined),31.0,-0.9%,-3.6%,21.2%,2.8%[15.4 µM],2.9,-4.6
Cc1ccc(NC(=O)c2ccc3c(=O)n4c(nc3c2)CCCCC4)cc1F,-3.9,nt,-31.7%,2.6%,?,2.4,19.6
CC(C)(C)C(=O)CN1C(=O)NC(c2ccccc2)(c2ccccc2)C1=O,-2.8,nt,4.9%,-1.1%,7.1%,9.9,-0.2
COc1ccc(/C=N/NS(=O)(=O)c2ccc(C)cc2)cc1OC(=O)c1ccccc1,-6.1,1.0%,-2.8%,3.0%,-9.0%,2.8,11.7
Cc1oc(-c2ccccc2)nc1Cn1cccc1C1=NC(c2ccccc2)CO1 (centres undefined),1.8,?,?,-4.2%,-20.5%,-0.1,29.6
Cn1cc(C2OC(=O)c3ccccc32)c2ccccc21 (centres undefined),1.0,nt,1.2%,nt,?,nt,nt
COc1ccc2[nH]c3c(NCCN(C(C)C)C(C)C)ncnc3c2c1,-9.8,17.8µM*,-2.2%,-7.9%,-56.8%[inhibitor],-4.3,1.2
COc1ccc(N2CCN(S(=O)(=O)/C=C/c3ccccc3)CC2)cc1,-13.4,-2.1%,11.8%,7.3%,-23.7%,-1.8,-3.4
O=C(Nc1cccc(C(F)(F)F)c1)NC1CCCCC1,-5.3,1.9%,-20.2%,6.2%,-12.6%,-0.3,0.3
Cc1cc(C)cc(OCC(=O)OCC(=O)N(C)CC(=O)Nc2ccc(F)cc2)c1,6.5,-20.5%,-10.0%,nt,4.4%[15.4 µM],nt,-22.2
COc1ccc(CCNc2ccc(C(CC(N)=O)NC(=O)c3ccc(Br)cc3)cc2[N+](=O)[O-])cc1 (centres undefined),-8.8,-2.4%,2.6%,?,nt,1.9,3.5
COc1cc(-c2nc(N)n[nH]2)cc(OC)c1OC,-8.1,?,16.1%,1.2%,4.6%,-0.1,6.6
CCOc1ccc(-c2cccc(NC(=O)c3ccc(Br)o3)c2)nn1,-14.5,-0.2%,-18.9%,nt,1.6%,nt,-6.7
O=C(CSc1ccccc1)Nc1ccc2c(c1)OCO2,-5.3,nt,3.7%,10.5%,?,1.7,-11.0
O=C(CCN1CCOCC1)N/N=C/c1cc([N+](=O)[O-])ccc1OC(F)F,4.8,nt,-15.3%,10.4%,?,-0.3,-1.5
COc1ccc([N+](=O)[O-])cc1NC(=O)c1ccc(N(Cc2ccccc2Cl)S(C)(=O)=O)cc1,3.6,-0.9%,-6.6%,8.1%,0.0%,1.0,20.3
O=C(CN1C(=O)C2C3C=CC(C4CC34)C2C1=O)NCc1ccco1 (centres undefined),4.6,nt,18.1%,6.9%,-9.2%[15.4 µM],4.0,-0.7

Looked up by structure from above, 3 records:
canonical_smiles,TRPML1 inh,ClpP mod,gsp antag,Sfp PPTase inh,gsp ag,Menin MLL FP FL,TRPV1 potentiator
Cc1ccc(NC(=O)c2ccc3c(=O)n4c(nc3c2)CCCCC4)cc1F,-3.9,nt,-31.7%,2.6%,?,2.4,19.6
CCC(C)NC(=O)CC(NS(=O)(=O)c1ccc(NC(C)=O)cc1)C(C)C (centres undefined),31.0,-0.9%,-3.6%,21.2%,2.8%[15.4 µM],2.9,-4.6
COc1cc(-c2nc(N)n[nH]2)cc(OC)c1OC,-8.1,?,16.1%,1.2%,4.6%,-0.1,6.6

Remaining list, next part.
canonical_smiles,TRPML1 inh,ClpP mod,gsp antag,Sfp PPTase inh,gsp ag,Menin MLL FP FL,TRPV1 potentiator
CC(C)CCn1nnnc1CN1CCN(C(=O)c2ccco2)CC1,6.2,nt,1.9%,-1.8%,-10.6%[15.4 µM],2.5,3.2
CC1(C)CC2(CC(c3ccccc3)Oc3cc(O)ccc32)NC(=O)N1 (centres undefined),nt,nt,nt,2.6%,nt,-2.8,-2.6
Cc1nn(Cc2ccccc2)c(C)c1NS(=O)(=O)c1ccccc1,13.1,1.5%,10.0%,0.2%,4.7%,-3.9,3.0
O=C(COc1ccc(Br)cc1Br)NN1C(=O)c2ccccc2C1=O,4.0,nt,-0.4%,nt,2.3%,nt,nt
CCC(=O)Nc1cccc(C(=O)Nc2nccs2)c1,-6.3,-0.6%,-10.3%,11.8%,3.2%[15.4 µM],1.4,-5.4
CCCN(CCC)CCCNC(=O)Cn1cnc2sc(C)c(S(=O)(=O)N3CCCCC3)c2c1=O,18.6&5.3,-0.3%,16.8%,16.2%,12.6%,1.2,2.4
O=[N+]([O-])C(=C1Nc2ccccc2N1)/C(Cl)=C(/Cl)Br,-22.0,-0.5%,?,-19.5%,-18.4%,2.0,1.4
CC(C)(C)c1ccc(/C=N/Nc2cccc(C(=O)O)c2)cc1,7.5,-1.5%,-8.0%,13.1%,11.6%,4.4,-12.8
Nc1ncc(Br)cc1S(=O)(=O)NCCc1ccccc1,-4.9,nt,4.5%,9.2%,14.5%,nt,0.6
CCC1([N+](=O)[O-])COC(c2ccc(OC)cc2)OC1 (centres undefined),-6.9,nt,7.1%,nt,20.8%,nt,nt
COc1ccc(C)cc1NC(=O)c1ccc([N+](=O)[O-])cc1[N+](=O)[O-],-8.7,0.0%,2.0%,17.2%,6.5%,2.4,-2.3
CC1(C)CC(=O)C(C(c2cc([N+](=O)[O-])ccc2Cl)C2C(=O)CC(C)(C)CC2=O)C(=O)C1,9.6,nt,-22.2%,nt,?,nt,nt
CNC(=S)N1CCC(c2nc3ccccc3s2)CC1,0.0,-3.3%,2.8%,10.9%,9.3%,-1.0,14.1
CN1CCN(c2nc3c(c(=O)n(C)c(=O)n3C)n2CCSc2nnnn2-c2ccccc2)CC1,5.3,nt,-4.2%,18.2%,-1.3%,1.2,-12.2
CCOc1ccc2nc(N(CCCN(C)C)C(=O)c3ccc(S(=O)(=O)N4CCc5ccccc5C4)cc3)sc2c1,14.1,3.7%,6.5%,-3.6%,?,nt,-2.5
CCCCCCn1c(COc2ccccc2F)nnc1SCC(=O)NC1CCS(=O)(=O)C1 (centres undefined),20.0,2.0%,-12.4%,nt,?,nt,nt
Cc1ccc(CN2CCNC(=O)C2CC(=O)N2CCN(c3ncccn3)CC2)o1 (centres undefined),24.5,-1.5%,0.1%,10.9%,4.9%[15.4 µM],-2.6,0.1
CN(C)S(=O)(=O)c1cccc(NC(=O)COC(=O)/C=C/c2ccc([N+](=O)[O-])cc2)c1,18.9,-3.7%,-18.0%,7.9%,10.2%[15.4 µM],-4.9,3.6
Cc1cc(S(=O)(=O)Nc2cccc(Cl)c2)c(C)s1,28.9,nt,-11.3%,-19.7%,-40.0%[inhibitor],2.4,?
COc1ccc(C(CC(=O)Nc2ncccc2C)N2Cc3ccccc3C2=O)cc1 (centres undefined),-17.6,nt,7.8%,14.7%,-1.9%,-6.3,-2.1

Entries of single compounds, quoted from the list.
Cc1nn(Cc2ccccc2)c(C)c1NS(=O)(=O)c1ccccc1 reads TRPML1 inh = 13.1; ClpP mod = 1.5%; gsp antag = 10.0%; Sfp PPTase inh = 0.2%; gsp ag = 4.7%; Menin MLL FP FL = -3.9; TRPV1 potentiator = 3.0
CN(C)S(=O)(=O)c1cccc(NC(=O)COC(=O)/C=C/c2ccc([N+](=O)[O-])cc2)c1 reads TRPML1 inh = 18.9; ClpP mod = -3.7%; gsp antag = -18.0%; Sfp PPTase inh = 7.9%; gsp ag = 10.2%[15.4 µM]; Menin MLL FP FL = -4.9; TRPV1 potentiator = 3.6

(continued)
canonical_smiles,TRPML1 inh,ClpP mod,gsp antag,Sfp PPTase inh,gsp ag,Menin MLL FP FL,TRPV1 potentiator
CCOC(=O)c1cccc(C2=CC(=O)C[C@H](c3ccc(OC)cc3)C2)c1,24.1,-1.5%,-21.4%,nt,-19.0%,nt,-4.1
O=C(Cn1c(=O)sc2ccccc21)NCc1ccccn1,2.5,-2.4%,-8.6%,16.6%,-49.7%,-1.2,?
c1ccc(C(c2ccccc2)c2noc(CN3CCN(C4CCCC4)CC3)n2)cc1,-3.9,0.1%,6.1%,16.6%,?,0.9,6.3
COc1ccccc1CNC(=O)C(=O)NCCC1CCCCN1S(=O)(=O)c1ccc(C)cc1 (centres undefined),10.1,1.5%,-20.8%,nt,11.1%,nt,2.2
O=C(c1cccc2ccccc12)N1CCCCC1,13.7,nt,13.5%,8.6%,-59.4%[inhibitor],1.8,-6.6
CCc1noc(C)c1C(=O)Nc1cccc2ncccc12,5.4,-4.1%,7.7%,11.3%,-46.0%[inhibitor],nt,4.4
CCn1c(=S)sc2c(=O)n(-c3ccccc3)c(SCC(=O)NCc3ccco3)nc21,-6.5,-1.2%,-3.2%,-16.1%,?,1.4,4.4
O=C1c2ccccc2C(=O)C1c1ccccn1,nt,-0.3%,4.0%,13.7%,6.5%,0.7,-3.4
CN1CC(C(=O)O)Cc2c1ccc1ccccc21 (centres undefined),-10.3,nt,5.8%,?,12.0%[15.4 µM],-15.8,3.5
CCOC(=O)c1[nH]c2cc3c(cc2c1NC(=O)CN1CCN(CCO)CC1)OCO3,1.3,25.1µM*,-3.0%,4.3%,-7.3%[15.4 µM],-0.3,-13.5
CCOC(=O)c1cnn(-c2nc(-c3ccccc3)cs2)c1C(F)(F)F,0.1,31.6µM*,-1.1%,-0.2%,-14.1%,6.2,-9.4
Cc1ccccc1NC(=O)c1ccc(NC(=O)C2CCCO2)cc1 (centres undefined),4.6,15.8µM*,-26.2%,14.7%,27.5%[15.4 µM],-7.6,6.3

This is a random part of the collection, and some 4.9% of all compounds hit somewhere here.
